GALR2 agonist: agonists of human galanin receptor 2 (GALR2) | O43603 | GALR2-expressing cells, agonist activation read-out | activation, %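 (tested at 5 µM)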 | 140,000 compounds, 0.48% hits;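 active = above mean plus 3 SD of all compounds, about 5% in these data, not always enough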;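 also: 0% = vehicle buffer wells and 100% = reference agonist at full effect; tested in CHO reporter cells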
Target sequence (O43603 whole entry, looked up): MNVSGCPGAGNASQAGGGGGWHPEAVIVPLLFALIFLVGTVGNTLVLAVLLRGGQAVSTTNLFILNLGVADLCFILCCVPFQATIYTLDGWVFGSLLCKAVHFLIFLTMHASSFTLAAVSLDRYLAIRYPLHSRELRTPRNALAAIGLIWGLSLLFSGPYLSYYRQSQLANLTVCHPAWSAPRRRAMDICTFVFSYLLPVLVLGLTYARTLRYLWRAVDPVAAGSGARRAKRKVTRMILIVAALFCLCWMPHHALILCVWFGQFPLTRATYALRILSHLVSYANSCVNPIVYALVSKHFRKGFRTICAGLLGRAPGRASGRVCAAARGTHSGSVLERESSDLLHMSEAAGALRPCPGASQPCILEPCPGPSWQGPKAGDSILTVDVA
RGS16-Gao: RGS16-Galphao interaction regulator (human); binding response (% of control), % at 10 µM; 220,000 compounds, 0.38% hits; AID 1441; bead-based flow cytometry RGS16-Galphao binding, fluorescence; actives lie on both sides;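 active = below 25% or above 175%, edge rows of some plates excepted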;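 also: Galphao activated by GDP with aluminum fluoride before binding; 100% = wells without compound and 0% = beads without RGS; some results beyond the cut were filed as inactive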
Target sequence (O15492 whole entry, looked up): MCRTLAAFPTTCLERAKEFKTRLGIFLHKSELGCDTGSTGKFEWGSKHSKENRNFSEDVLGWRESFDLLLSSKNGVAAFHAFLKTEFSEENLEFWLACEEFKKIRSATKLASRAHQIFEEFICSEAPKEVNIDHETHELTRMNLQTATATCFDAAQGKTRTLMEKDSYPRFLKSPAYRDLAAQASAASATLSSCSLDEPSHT
Target sequence (P09471 whole entry, looked up): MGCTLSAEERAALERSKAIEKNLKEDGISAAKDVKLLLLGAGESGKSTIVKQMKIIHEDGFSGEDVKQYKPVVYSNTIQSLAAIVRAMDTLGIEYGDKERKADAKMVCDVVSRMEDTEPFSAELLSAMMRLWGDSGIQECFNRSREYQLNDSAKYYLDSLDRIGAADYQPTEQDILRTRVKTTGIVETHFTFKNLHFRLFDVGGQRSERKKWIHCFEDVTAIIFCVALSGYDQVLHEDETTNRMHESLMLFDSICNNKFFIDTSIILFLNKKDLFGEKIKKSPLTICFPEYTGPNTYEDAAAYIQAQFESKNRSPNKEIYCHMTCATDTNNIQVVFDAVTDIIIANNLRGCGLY
PKD1 inh: PKD1 (human) kinase inhibition | Q15139 | PKD1 kinase fluorescence polarization assay | inhibition, %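 (about 10 µM by stock and volumes)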 | 200,000 compounds, 0.056% hits | AID 797;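 active = inhibition of 50% or more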;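 also: controls were vehicle for no effect and a reference inhibitor for full effect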
HSV replic up: increases HSV replication in cells; HSV replication augmentation in cells, fold increase; maximum fold increase; 220,000 compounds, 0.005% hits;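 active = peak rise of 1.5-fold or more in the series; inconclusive = self-fluorescent or not available for retest; tested in PC3 cells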;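 also: first round at 10 µM; read as green reporter fluorescence; hits show the peak of a series up to 25 µM; 1 = signal of infected wells without compound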
INS promoter inh: TRM-6 insulin promoter activity inhibition | TRM-6 cells (human fetal islet line), insulin promoter-eGFP reporter, imaging; reporter expression induced with tamoxifen | 130,000 compounds, 0.9% hits | inhibition, % at 2 µM | AID 1273;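 active = inhibition above the mean plus 3 SD, with well images judged a real hit on visual review, cut at about 60% in these data, passing the limit was not always enough; inconclusive = inhibition over the cutoff but images rejected on review; inactive = inhibition not above the cutoff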
INS promoter inh cell count: further read-out of INS promoter inh, marked with its call; normalized cell count, %; measured here: cell count, toxicity; reference of the scale not given here;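 cells exposed to compound for 48 h; stained nuclei by imaging scaled within each plate; lower means fewer cells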
HSV replic up primary fold: recorded beside HSV replic up, whose call it bears; fold increase; compound at 10 µM; measured here: primary screen fold increase 10 uM; tested in PC3 cells;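 GFP signal in the first replicate; 1 = infected wells without compound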
* hit, by the source's call; i = inactive; ? = inconclusive; . = not tested or not shown.

SMILES	GALR2 agonist	RGS16-Gao	PKD1 inh	HSV replic up	HSV replic up primary fold	INS promoter inh	INS promoter inh cell count
COCCn1cnc2c1c(=O)n(CC(=O)OCC(=O)NCCCc1ccccc1)c(=O)n2Cc1ccccc1	0.5	112	-21	i	0.99	-33	90
CC1(C)CC(=O)C(C=Nc2ccc(Cl)cn2)=C(O)C1	-0.9	104	-6	i	1	-11	70
CCN(CC)CCNC(=O)c1cc(S(C)(=O)=O)ccc1OC	-1.1	113	2	.	.	-18	19
CCN(C(=O)COC(=O)c1c2c(nc3ccccc13)/C(=C/c1ccccc1)CC(C)C2)C1CCS(=O)(=O)C1 (stereo unspecified)	0.4	107	-8	i	0.58	-40	118
Cc1cnc(C(=O)Nc2ccc(C)c(S(=O)(=O)N(C)C)c2)cn1	-1.5	104	-15	i	0.97	.	.
Cc1cc2oc(=O)cc(CN3CCC(C)CC3)c2c(C)c1Cl	0.3	94	4	i	0.85	20	95
Cc1ccc(Cn2c(=O)c3cccnc3n(CC(=O)Nc3cccc(C(F)(F)F)c3)c2=O)cc1	-1.2	105	5	i	0.91	0	111
C/C(=N\NC(=O)CCc1c[nH]c2ccccc12)c1cccc([N+](=O)[O-])c1	-2.3	101	7	i	1.1	.	.
COc1ccc(N=Cc2sc(O)c3ccccc23)cc1	-2.4	97	-6	?	.	0	68
COc1ccc(Nc2oc(-c3ccccc3Cl)nc2C#N)cc1	11	102	-1	i	0.52	.	.
Cc1ccc(-c2nnn(CC(=O)N(Cc3cccs3)C(C(=O)NCC3CCCO3)c3ccco3)n2)o1 (stereo unspecified)	.	73	-5	i	0.96	-117	27
CC(C)NC(=O)NC(=O)COC(=O)c1ccc(OC(F)(F)F)cc1	-0.5	60	17	i	0.99	-5	117
CN(C)c1ccc(CN2CCCCC2)cc1	-0.7	105	6	i	0.95	14	98
COc1ccc(NC(=O)Cn2nnc(-c3ccc(CN4CCOCC4)cc3)n2)c(OC)c1	-1.7	170	-1	i	1	.	.
Cc1ccc(S(=O)(=O)N2CCC(C(=O)N[C@H](C(=O)NCC3CCCO3)C(C)C)CC2)cc1 (stereo partly specified)	-2.2	99	-5	i	1.1	7	107
Cc1ccc(NC(=O)COC(=O)[C@H](C)NC(N)=O)c(C)c1	.	102	3	i	0.97	.	.
CCc1n[nH]c(=S)n1/N=C/c1ccc2c(c1)OCO2	-3.9	99	2	i	0.98	9	292
C/C(=C/C(=O)O)C(=O)Nc1cccc(C(F)(F)F)c1	.	102	5	i	0.9	38	57
Fc1ccc(COc2ccc(-c3nnco3)cc2)cc1	.	103	.	i	1	.	.
CCc1noc(C)c1C(=O)Nc1nc(-c2ccc(Cl)cc2Cl)c(C)s1	-1.3	100	-1	i	1	-5	83
O=C(COC(=O)c1cccc(N2C(=O)c3ccccc3C2=O)c1)Nc1ccccc1	0.0	107	-3	i	0.86	.	.
CCOc1ccc(Br)cc1/C(C)=N\NC1=NCCN1	-1.7	106	-1	i	0.67	-11	136
COc1ccc(Cn2nnc(C(=O)Nc3ccc(F)cc3)c2N)cc1	-1.2	103	-7	i	1.1	43	89
Cc1ccc(S(=O)(=O)N[C@@H](Cc2ccccc2)C(=O)CCl)cc1	-2.3	101	-10	i	0.67	14	126
O=Cc1cc2ccccc2nc1SCc1ccc(Cl)cc1	0.3	102	-8	i	0.72	50	80
CCOc1ccc(NC(=O)NCCN2C(C)CCCC2C)cc1 (stereo unspecified)	-0.8	111	-7	i	1	-24	100
Cc1ccccc1NC1=NC2(CCCC2)N=C(N)N1	.	99	-5	i	0.93	0	138
CCC(=O)N(CCC1(C(C)C)CCOC(C)(C)C1)C(C)c1cccs1 (stereo unspecified)	.	100	.	i	0.99	.	.
CC(NC(=O)COc1ccccc1)C(c1cccs1)N1CCCC1 (stereo unspecified)	.	100	6	i	0.99	.	.
COc1ccc(-c2[nH]ncc2CN(C)Cc2ccccn2)c(OC)c1	.	171	-3	i	0.93	.	.
O=C(Nc1nccs1)c1cn(-c2ccccc2)nc1-c1ccccc1	-1.9	93	1	i	0.78	43	127
COC(=O)c1nc(NC(=O)c2ccc(C(C)(C)C)cc2)n[nH]1	.	99	-6	i	1	33	102
CCOC(=O)c1ccc(N2C(=O)CC(N3CCC(C(=O)OCC)CC3)C2=O)cc1 (stereo unspecified)	-1.4	97	1	i	0.97	6	101
Cc1[nH]n(CCC#N)c(=O)c1CC(=O)N1CCN(c2ccccc2)CC1	2.6	92	2	i	0.97	.	.
Cc1ccc(NCc2nnc(SCC(=O)Nc3nnc(C)s3)n2C)cc1	.	115	-4	i	0.99	8	61
O=C(NC(Nc1ncccn1)C(=O)c1ccccc1)c1ccccc1 (stereo unspecified)	-0.6	98	6	i	1	-25	55
Cc1ccc(C)c(OCCCC(C)(C)C(=O)O)c1	-1.3	.	-9	i	0.97	43	108
COc1ccc(/C=C(/NC(=O)c2ccc([N+](=O)[O-])cc2)C(=O)NC(C)(C)C)cc1	.	98	6	i	0.93	.	.
CCn1c2c(c(=N)c3c1CCC3)CCC2	-1.9	104	-9	i	0.95	13	111
Cc1ccc(-c2csc(NC(=O)CSc3nc4ccccc4c(=O)n3CCCN(C)C)n2)cc1	.	98	2	i	0.89	.	.

7 of these compounds, set out differently:
Second line of a record – GALR2 agonist | RGS16-Gao | PKD1 inh | HSV replic up | HSV replic up primary fold | INS promoter inh | INS promoter inh cell count
Cc1ccccc1NC1=NC2(CCCC2)N=C(N)N1
    . | 99 | -5 | i | 0.93 | 0 | 138
CCn1c2c(c(=N)c3c1CCC3)CCC2
    -1.9 | 104 | -9 | i | 0.95 | 13 | 111
COc1ccc(Cn2nnc(C(=O)Nc3ccc(F)cc3)c2N)cc1
    -1.2 | 103 | -7 | i | 1.1 | 43 | 89
COc1ccc(/C=C(/NC(=O)c2ccc([N+](=O)[O-])cc2)C(=O)NC(C)(C)C)cc1
    . | 98 | 6 | i | 0.93 | . | .
CCC(=O)N(CCC1(C(C)C)CCOC(C)(C)C1)C(C)c1cccs1 (stereo unspecified)
    . | 100 | . | i | 0.99 | . | .
COc1ccc(-c2[nH]ncc2CN(C)Cc2ccccn2)c(OC)c1
    . | 171 | -3 | i | 0.93 | . | .
COC(=O)c1nc(NC(=O)c2ccc(C(C)(C)C)cc2)n[nH]1
    . | 99 | -6 | i | 1 | 33 | 102

(next part)
SMILES	GALR2 agonist	RGS16-Gao	PKD1 inh	HSV replic up	HSV replic up primary fold	INS promoter inh	INS promoter inh cell count
CCOC(=O)/C=c1\s/c(=C\c2ccc(C(=O)OC)cc2)c(=O)n1CC(=O)Nc1ccccc1	.	103	0	i	0.8	-60	150
Cc1ccc(NC(=O)COC(=O)c2ccc3c(c2)C(=O)N(CCc2ccccc2)C3=O)c(C)c1	-0.7	105	3	i	0.88	.	.
CCOC(=O)c1nn(-c2ccccc2)c(=O)c(C#N)c1C	-1.3	96	1	i	0.95	26	128
CCN(CC(=O)NCCc1ccccc1)S(=O)(=O)c1ccccc1	.	113	-5	i	1.1	.	.
Cn1c(C(=O)N2CCc3ccccc3C2)cc2oc3ccccc3c21	-1.0	106	-13	i	0.76	-33	102
CCC(=O)Nc1ccc(C(=O)CSc2nnc(-c3cccnc3)o2)cc1	0.3	97	-11	i	1.1	-92	63
COc1cccc(C(=O)O/N=C(\N)c2ccncc2)c1OC	-1.0	103	-16	i	0.98	10	114
COC(OC)C12c3ccccc3C(c3ccccc31)C1C(=O)N(c3cccnc3)C(=O)C12 (stereo unspecified)	.	100	3	i	0.86	.	.
C#CCOCCOCCOCCNc1nc(N2CCOCC2)nc(N2CCN(C(=O)[C@H]([C@@H](C)CC)n3cc([C@@H](N)CO)nn3)CC2)n1	.	96	3	i	0.76	.	.
O=C(NCCc1csc(-c2cccnc2)n1)c1cccs1	-1.1	104	3	.	.	.	.
CCN(CC)CCCNc1cc2n(c(=O)n1)CCc1cc(OC)c(OC)cc1-2	-5.6	99	1	i	1	7	159
O=C(Nc1c(C(=O)O)[nH]c2ccccc12)c1cccc(C(F)(F)F)c1	.	98	.	i	1	.	.
Cc1ccc2oc(NC(=O)N3CCOCC3)cc(=O)c2c1	0.2	105	5	i	0.81	26	95
CCOC(=O)C1CCN(Cc2cnc(Oc3ccc(Cl)cc3C)s2)CC1	-3.7	96	-5	i	0.93	-13	118
CCCSc1nc(N)nc(-c2cccs2)c1C#N	-1.0	102	-5	i	0.93	-10	93
CCCN1C(=O)/C(=C/c2ccc(OCC(=O)OCC)cc2)NC1=S	.	98	0	i	0.84	.	.
CNC(=O)C(NC(=O)c1ccccc1)=C(C)C	.	101	.	i	1.1	.	.
c1ccc2c(c1)ccc1nnc(SCc3ccc4c(c3)OCO4)n12	0.7	106	-6	i	0.94	.	.
N#Cc1cc(C(=O)c2cc(Br)ccc2O)cn(Cc2ccccc2)c1=O	.	102	4	i	1.1	-69	124
COCCN(CCOC)c1nc(N)c2c(N)nc3c(c2c1C#N)CC(=O)N3Cc1ccc(Cl)cc1	0.2	103	-11	i	1	.	.
O=C(CN1C(=O)C2CC=CCC2C1=O)Nc1nnc(SCc2ccc(F)cc2)s1 (stereo unspecified)	-0.1	103	-6	i	0.94	51	68
Cc1cc(C)nc(N/N=C/c2ccc(Cl)cc2)n1	.	95	.	i	1.1	.	.
CCOC(=O)c1c(NC(=O)c2ccc(Br)o2)sc2c1CCCC2	0.2	108	-2	i	0.89	4	119
CSc1nc(C(=O)N2CCCC(C(=O)c3ccc(Cl)cc3)C2)cs1 (stereo unspecified)	.	19	-1	i	1.1	-47	53
COc1ccc(/C=C2/C(=O)N(Cc3ccccc3)N=C2C)cc1	0.9	95	-4	i	0.89	-10	112
O=C(OC1CCOC1=O)c1cccc(S(=O)(=O)N2CCc3ccccc3C2)c1 (stereo unspecified)	.	97	-2	i	0.98	.	.
N#Cc1ccccc1NC(=O)c1ccccc1OCC(=O)NCc1ccco1	-1.1	89	-2	i	0.89	-380	66
COc1cc(-c2nc(-c3cccc(C(F)(F)F)c3)no2)cc(OC)c1OC	-2.5	103	-9	i	1	32	100
COc1cc(O)c(C(CCN2CCCC(C)C2)c2ccc(N(C)C)cc2)c(OC)c1 (stereo unspecified)	.	116	.	i	0.81	.	.
Cc1ccc(-n2ncc(C#N)c2/N=C/N2CCCCCC2)cc1	-0.5	102	-8	.	.	.	.
Cc1noc(C)c1COc1ccc(C(=O)OC(C)C(=O)Nc2ccc(N3CCOCC3)cc2)cc1 (stereo unspecified)	-1.3	96	-6	i	1	.	.
Cn1c(N)c(C(=O)COC(=O)CSc2ccccc2)c(=O)n(C)c1=O	-2.3	100	13	i	1.1	25	113
Cn1cnnc1SCC(=O)NCCc1ccccc1	-0.6	99	8	i	0.76	17	135
CC(C)CC(=O)Nc1ccc(C(=O)Cn2nc(C(=O)O)c3ccccc3c2=O)cc1	-3.5	104	-7	i	1	27	102
CCNC(=O)c1c(C)nc2ccccn12	-1.2	108	-16	i	0.96	0	93
CC(=O)Oc1c(S(=O)(=O)c2ccccc2)c(C)nn1C(C)(C)C	-2.9	102	4	i	0.65	50	109
COC1C=CC(CNC(=O)c2cc3c(=O)n4cccc(C)c4nc3n2C)(OC)O1 (stereo unspecified)	.	104	-2	i	0.88	-31	85
CC(C)(C)n1ncc2c(=O)n(CC(=O)Nc3ccc4c(c3)OCO4)cnc21	-1.6	105	-14	i	0.92	.	.
COc1cc(S(=O)(=O)NCc2ccc3c(c2)OCO3)ccc1Cl	-2.7	99	-5	i	0.92	15	130
Cn1c(N)c(N2CCCCC2)c(=O)n(CC(=O)Nc2ccc(Cl)c(Cl)c2)c1=O	-0.2	85	-2	i	0.95	21	101
Cc1cc(-c2ccccc2)nc2cc(C(=O)N(Cc3ccccc3)Cc3ccccc3)nn12	0.1	104	-4	i	0.99	51	105
COCCNC(=O)C(NC(=O)C1CCC(C)CC1)C(C)C (stereo unspecified)	.	98	5	i	1.1	.	.
COc1ccc(C(=O)Nc2cccc(C(C)=O)c2)c(OC)c1OC	-1.3	208	-5	i	0.98	52	126
Cc1c(C(=O)O)sc2nc3n(c(=O)c12)CCCCC3	0.3	97	7	i	0.95	-40	115
O=C(Nc1ccc(C(=O)OC[C@@H]2CCCN3CCCC[C@H]23)cc1)c1cccc(Br)c1	-1.7	108	12	i	0.61	19	104
O=c1ccccn1CCOc1ccc(Cl)cc1	.	107	.	i	0.87	.	.
Nc1nnc(SCC(=O)NCCOc2ccccc2)s1	-0.2	101	-15	i	1	44	64

Screens: PubChem, several laboratories
